HSD17B inh – blocks hydroxysteroid 17-beta dehydrogenase activity; Q99714; recombinant HSD17B10, NADH fluorescence kinetic; many of its hits are not listed in these tables; Potency, µM (highest dose often 57.1 µM), for the others: top-dose activity change, negative = inhibition, hits mostly inhibitors; hit rate 7.6% among 75,000; active = well fitted inhibition curve with a large enough effect; inconclusive = small, poorly fitted or top-dose-only effect; inactive = no such curve, though single readings can be large or run the other way;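 note: the protocol describes HADH2 (HSD17B10) and not the HSD17B4 of the title; nearly all actives have a fitted effect of over 70% in size; most hits overshoot -100% by far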
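Activity followed as NADH fluorescence increase (ex 360, em 450 nm) every 30 seconds for 4 min, using final 90 uM beta-hydroxybutyryl CoA and 1 mM NAD+. Recombinant His-tagged enzyme, 20 nM, pH 9.0 Tris buffer, 15 min compound preincubation.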
The depositor's hits bear a star; ? = inconclusive; [ ] = another dose, or the depositor's remark. % is set by controls: 0 for no effect and ±100 for the full control effect; potency is the fitted concentration of half-maximal effect.

structure,HSD17B inh
CS(=O)(=O)N1CCC(C(=O)Nc2ccc(Oc3ccccc3)cc2)CC1,0%
O=C(O)c1sccc1S(=O)(=O)Nc1ccc(Cl)cc1,-4%
COc1cc2c(cc1OC)C1=C(C#N)CN(C3CCCCC3)CN1CC2,-1%
COc1ccc(C)cc1S(=O)(=O)Nc1ccccc1C,0%
O=C1c2ccc(Oc3ccc4c(c3)C(=O)N(CCCCO)C4=O)cc2C(=O)N1CCCCO,?
O=C(O)CSCC(=O)NCc1ccccc1,4%
CCOc1ccc(-n2cnnn2)cc1S(=O)(=O)N1CCCCC1,15%
COc1ccc(Cl)cc1C(=O)CSc1nc(N)cc(N)n1,-1%
Cc1nc(N2CCN(C(=O)c3ccco3)CC2)c2oc3ccccc3c2n1,-3%
COc1ccc(-c2[nH]nc3c2C(c2ccccc2OC(=O)N2CCOCC2)C(C#N)=C(N)O3)cc1 (stereo not drawn),-6%
CCOc1ccc(N(CC(=O)Nc2ccc(C)cc2)S(=O)(=O)c2c(C)noc2C)cc1,7%
O=C(CSc1nncc2ccccc12)N1CCOCC1,1%
c1cc(-c2nc3cc(Cc4ccc5oc(-c6ccncc6)nc5c4)ccc3o2)ccn1,5%
Cc1cc(C)cc(NC(=O)CSc2nnc(Cc3cccn3C)n2-c2ccc(F)cc2)c1,2%
CS(=O)(=O)N1CCC[C@@]2(CCN(C(=O)Nc3ccccc3)C2)C1,3%
O=C(c1csnn1)N1CCC[C@@]2(CCN(Cc3cc(C(F)(F)F)cc(C(F)(F)F)c3)C2)C1,-14%
COC(=O)c1ccc(C(=O)OC)c(NC(=O)Nc2ccc3c(c2)OCO3)c1,3%
CN1CCN(C(=O)C2CC(c3c(F)cccc3Cl)=NO2)CC1 (stereo not drawn),9%
O=C(c1cc(-c2ccncc2)nc2ccccc12)N1CCN(c2ccc(N3CCOCC3)nn2)CC1,14%
COc1cccc(NC(=O)CN(c2cccc(C(F)(F)F)c2)S(C)(=O)=O)c1,-9%
O=C1C2C3CCCC3=C3CCCC3C2C(=O)N1c1ccccc1 (stereo not drawn),-1%
Nc1nc(-c2ccc(Cl)cc2)nn1C(=O)c1cccnc1,3%
Cc1ccc2c(c1)NC(=O)C(CC(=O)O)O2 (stereo not drawn),-6%
NCC1CCC(N)C(O[C@@H]2C(O)[C@H](O[C@H]3OC(CO)C(O)C(N)C3O)[C@@H](N)C[C@H]2N)O1 (stereo partly drawn),4%
O=c1onc2n1-c1cc(Br)ccc1OC2,4%
CC1=C(C(=O)NC(C)c2ccc3c(c2)OCCO3)C2(CCC(C)CC2)OC1=O (stereo not drawn),-4%
O=C(c1ccco1)N1CCN(C(c2ccccc2Cl)c2nnnn2Cc2ccco2)CC1 (stereo not drawn),-24%
CC(=O)N1CCC2(CC1)CC(=O)c1cc(OCC(=O)NCc3ccc(C)cc3)ccc1O2,32µM*
Cn1c(=O)c2c(-c3ccccc3)n(-c3ccccc3O)cc2n(C)c1=O,?
CCn1cnc2sc(C(=O)N(Cc3ccc(N(C)C)cc3)Cc3ccco3)c(C)c2c1=O,-13%
O=C(CCN1C(=O)C2C3C=CC(C3)C2C1=O)Nc1ccc2c(c1)OCO2 (stereo not drawn),-1%
N#Cc1cc(-c2ccccc2)oc1NC(=O)c1ccco1,-9%
COc1ccc(CC(=O)Nc2cc(C)on2)cc1,0%
CC1(C)OCC(CSC2=C(SCC3COC(C)(C)O3)C(=O)c3ncccc3C2=O)O1 (stereo not drawn),-12%
N#CCCn1c(=O)cnc2cnc(Oc3cccc(Cl)c3)nc21,9%
Cn1c(CCC(=O)Nc2ccc(N3CCOCC3)cc2)nc(=O)c2ccccc21,-4%
COc1cc(NC2c3ccccc3C(=O)N2c2ccc(C)cn2)cc(OC)c1OC (stereo not drawn),3%
CCOC(=O)N1CCC(NC(=O)c2cc(C)c3c(C)nn(-c4ccccc4)c3n2)CC1,12%
CC(C)NCC(O)COc1c(F)cc(Br)cc1F (stereo not drawn),3%
O=C(NC12CC3CC(CC(C3)C1)C2)C1=COCCO1,8%
CC(=O)C1(O)C(C)CC2C3CCC4CC(O)CCC4(C)C3=CCC21C (stereo not drawn),8%
CO[C@@H]1COC(=O)[C@@H](C)NC(=O)C/C=C\[C@@H](C)[C@H](NS(=O)(=O)c2ccc(C)cc2)COC(=O)[C@H](C)NC(=O)C/C=C\[C@H]1C,5%[11.4 µM]
Cc1ccc(NS(=O)(=O)c2cc(C(=O)O)ccc2Cl)cc1,?
CCOC(=O)c1cn(-c2ccccc2)nc1-c1cccnc1,-2%
CCCc1cc(=O)[nH]c(SCC(=O)OCc2ccccc2)n1,2%
COC(=O)c1cc(-c2c(C)oc3cc(OC)ccc3c2=O)c(C)o1,21%
Cc1c(Br)c(C(F)(F)F)nn1CC(=O)N1CCCC1,6%
O=C(O)C1C2C=CC(C2)C1C(=O)NC1CCN(Cc2ccccc2)CC1 (stereo not drawn),7%
O=C(Cn1cc2c(n1)CCCC2)NCCCN1CCCC1,9%
CSc1cccc(NC(=O)CN(C)S(=O)(=O)c2ccc(F)cc2)c1,-7%
COc1ccc(CN2CCN(C(=O)c3cccs3)CC2)cc1Br,-5%
CC(CN1CCCC(C(N)=O)C1)c1ccccc1 (stereo not drawn),1%
O=C(O)c1cccc(CSc2nnc(Cc3ccccc3)o2)c1,4%
c1ccc(/N=C2\N=C(Nc3ccccn3)c3ccccc32)nc1,-13%
CC(=O)N1CCN=C1SCc1ccc(F)cc1,5%
COc1ccc(N(CC(=O)NCc2cccs2)S(=O)(=O)c2c(C)n[nH]c2C)cc1,8%
COc1ccccc1NC1SC(=O)N(c2ccccc2)C1=O (stereo not drawn),4%
CCOC(=O)N1CCN(C(=O)COc2ccc(S(=O)(=O)NC3CCCCC3)cc2C)CC1,4%
CC(C)C[C@@H](NC(=O)OCC1c2ccccc2-c2ccccc21)C(=O)O,-11%
Cc1cc(C)nc(SCc2nnc(SCC(=O)Nc3ccc(C)c(C)c3)o2)n1,4%

Reformatted field by field: part of the list above
canonical_smiles: CCCc1cc(=O)[nH]c(SCC(=O)OCc2ccccc2)n1
  HSD17B inh = 2%

canonical_smiles: N#Cc1cc(-c2ccccc2)oc1NC(=O)c1ccco1
  HSD17B inh = -9%

canonical_smiles: CC1(C)OCC(CSC2=C(SCC3COC(C)(C)O3)C(=O)c3ncccc3C2=O)O1 (stereo not drawn)
  HSD17B inh = -12%

canonical_smiles: CCOC(=O)c1cn(-c2ccccc2)nc1-c1cccnc1
  HSD17B inh = -2%

Not a retest: entries from further up.
structure,HSD17B inh
COc1cc(NC2c3ccccc3C(=O)N2c2ccc(C)cn2)cc(OC)c1OC (stereo not drawn),3%
CCOC(=O)N1CCC(NC(=O)c2cc(C)c3c(C)nn(-c4ccccc4)c3n2)CC1,12%
CC(C)NCC(O)COc1c(F)cc(Br)cc1F (stereo not drawn),3%
O=C(NC12CC3CC(CC(C3)C1)C2)C1=COCCO1,8%
CC(=O)C1(O)C(C)CC2C3CCC4CC(O)CCC4(C)C3=CCC21C (stereo not drawn),8%
CO[C@@H]1COC(=O)[C@@H](C)NC(=O)C/C=C\[C@@H](C)[C@H](NS(=O)(=O)c2ccc(C)cc2)COC(=O)[C@H](C)NC(=O)C/C=C\[C@H]1C,5%[11.4 µM]

Following part
structure,HSD17B inh
COc1ccc2[nH]cc(CCNc3ccnc(-c4cccc(C#N)c4)n3)c2c1,-3%
COC(=O)c1sc2nc(CN3CCOCC3)nc(N3CCOCC3)c2c1C,-7%
CCOC(=O)c1cccc(NC(=O)c2ccco2)c1,5%
N#Cc1ccc(CN2CCCC3(CCN(C(=O)c4cnccn4)CC3)C2)cc1,4%
COc1ccccc1NC(=O)CN1CCN(CC(=O)Nc2ccc(Cl)c(C(F)(F)F)c2)CC1,4%
COc1ccc(NC(=O)CCCCC#Cc2ccccc2)cc1,17%
COC(=O)[C@@]1(Cc2ccc(OC)cc2)[C@H]2c3cc(C(=O)N(C)C)n(C)c3C[C@H]2CN1C(=O)c1ccccc1,-6%
C1CCN=C(Nc2nn[nH]n2)CC1,7%
Cn1c(=O)c2[nH]c(CCNC(=O)c3ccccc3)nc2n(C)c1=O,5%[11.4 µM]
COc1ccc2c(c1)N1CCN=C1N2C,4%
Cc1nn2c(-c3ccncc3)nnc2c2ccccc12,-7%
O=C(O)CCCNC(=O)OCc1ccccc1,5%
CCN(CCNC(=O)Nc1ccc(Cl)cc1)c1ccccc1,-5%
O=C(Cn1cnc2ccccc2c1=O)Nc1ccc(-c2nnc3n2CCCCC3)cc1,-3%
CCOc1ccc(S(=O)(=O)N(C)c2ccc(OCC(=O)Nc3ccc4[nH]c(=O)[nH]c4c3)cc2)cc1,0%
COc1ccc(N2C(=O)CCC(C(=O)NCc3ccccn3)C2c2ccc(OC)c(OC)c2)cc1 (stereo not drawn),5%
Cc1ccc(-c2noc(-c3ccccc3C(=O)NCC3CCCO3)n2)cc1 (stereo not drawn),8%
CC(C)(C)OC(=O)N[C@@H](Cc1ccccc1)c1nnc(S(=O)(=O)Cc2ccccc2)o1,-13%
COC(=O)c1cc(-c2ccc(OC)c(OC)c2)on1,17%
CCn1c(=O)cc(OCC(=O)NCc2ccc(C)o2)c2ccccc21,-12%
O=C(CN1C(=O)c2cccc3cccc1c23)N1CCN(c2cccc(Cl)c2)CC1,8%
Cn1c(Cn2c(=O)sc3ccccc32)nnc1SCC(=O)NCC1CCCO1 (stereo not drawn),2%
O=C(CN1CCN(C(=O)c2ccco2)CC1)Nc1ccc(Cl)c(C(F)(F)F)c1,7%
CCOP(=O)(c1ccc(N(C)C)cc1)C(O)c1ccc(Cl)cc1 (stereo not drawn),5%
COc1ccc(NC(=O)N(Cc2cc3cc(OC)ccc3[nH]c2=O)CC2CCCO2)cc1 (stereo not drawn),32µM*
Cc1ccc(Cl)cc1N(CC(=O)N1CCCCCC1)S(C)(=O)=O,2%
O=C(Nc1ccc(Cl)cc1)N1CCN(c2ccc3nnc(-c4ccc(F)cc4)n3n2)CC1,-30%
NCCCCCc1nnc(SC/C=C/c2ccccc2)o1,5%
COc1cc(C2c3c(-c4cc(C)cc(C)c4O)n[nH]c3C(=O)N2CCCO)cc(OC)c1OC (stereo not drawn),1%
COc1ccccc1NC(=O)CSc1nnc(Cc2cc(=O)[nH]c(=O)[nH]2)n1-c1ccccc1,10%
CN(C)C1CCN(C(=O)c2ccc(-n3c(=O)c(=O)[nH]c4ccccc43)cc2)C1 (stereo not drawn),-2%
CCOC(=O)C1=C(CSc2nc(C)ccc2C#N)OC(N)=C(C#N)C1c1cccc(OC)c1OC (stereo not drawn),278%[activator]
CCC(OC(=O)CC1Sc2ccccc2NC1=O)C(=O)NCC1CCCO1 (stereo not drawn),-10%
Cc1cc(=O)[nH]c(N2CCN(Cc3ccccc3)CC2)n1,6%
O=C(NCc1ccccc1)NC1CCCCC1,8%
CCCCN1CCC[C@@H]1CNC(=O)c1cc(C#N)c2ccccc2c1OC,-19%
S=C(c1ccc(N2CCOCC2)cc1)N1CCCCC1,-4%
CCCC1CCC(C(=O)Nn2c(C)nc3ccccc3c2=O)CC1 (stereo not drawn),3%
CCOC(=O)c1cccc(NC2c3ccccc3C(=O)N2Cc2ccco2)c1 (stereo not drawn),-11%
Cc1ccc(-n2ncc3c(=O)[nH]c(SCC(=O)N4CCCC4)nc32)cc1C,1%
Cc1nn(Cc2ccccc2Cl)c(C)c1N,15%
COc1cc2[nH]c(=S)n(CC3CCCO3)c(=O)c2cc1OC (stereo not drawn),-2%
O=C(CSc1nnc(-c2ccc(S(=O)(=O)N3CCOCC3)cc2)o1)c1ccccc1F,8%
CC(C)C(=O)Nc1cccc(C(=O)NCc2ccc(S(N)(=O)=O)cc2)c1,10%
CC(C)(C)n1nnnc1C(c1cccc(C#N)c1)N1CCC(Cc2ccccc2)CC1 (stereo not drawn),-6%
O=C1C(C=NCCCN2CCCC2=O)=C(O)c2ccccc21,2%
COc1cc(OC)cc(C(=O)Nc2cccc(NC(C)=O)c2)c1,0%
c1ccc(Nc2nc(-c3ccncc3)cs2)nc1,-3%
COC(=O)CCC(=O)N1CCc2cc(S(=O)(=O)N3CCc4ccccc43)ccc21,-2%
Cc1ccc(S(=O)(=O)C2(C(=O)NCc3ccc4c(c3)OCO4)CC2)cc1,5%
COc1ccc(NC(=O)C2CCCN2S(=O)(=O)c2ccc3c(c2)CCC(=O)N3)cc1 (stereo not drawn),3%
CCOC(=O)c1cccc(NC(=O)C2CCCN(S(=O)(=O)c3cnc[nH]3)C2)c1 (stereo not drawn),6%
CC(=O)NC(=O)NC1CSCC1OC(C)=O (stereo not drawn),-3%
CC(C)(C)NC(=O)NC(=O)COc1ccccn1,1%
COc1ccccc1CNC(=O)CC(NS(=O)(=O)c1ccc(C)cc1)c1ccco1 (stereo not drawn),1%
COC(=O)c1ccccc1NC(=O)Nc1cnccn1,?

High-throughput results (PubChem BioAssay)

The list is partial; count on the stated rates, not on these rows.
